High-throughput results: PubChem BioAssay, National Center for Advancing Translational Sciences (NCATS)
Vaccinia mCherry: vaccinia inhibition (mCherry reporter). Potency, µM (highest dose often 36.5 µM), without a hit: at the highest dose activity change, negative = inhibition, usual class: inhibitors. Vaccinia virus mCherry reporter infection, fluorescence; about a quarter of the inactives have no number. actives 0.63% (n = 310,000); active = well fitted inhibition curve with a large enough effect; inconclusive = small, poorly fitted or top-dose-only effect; inactive = no such curve, though single readings can be large or run the other way; tested in A549 cells; note: nearly all actives have a fitted effect of over 35% in size; inactives centre near -10
Vaccinia Venus: vaccinia inhibition (Venus reporter) | Vaccinia virus Venus reporter expression, fluorescence | Potency, µM (top dose mostly 36.5 µM), for the others: at the top dose activity change, negative = inhibition, actives largely listed as inhibitors | actives 0.46% (n = 330,000) | AID 720580; active means well fitted inhibition curve with a large enough effect; inconclusive means small, poorly fitted or top-dose-only effect; inactive means no such curve, though single readings can be large or run the other way; tested in A549 cells; note: nearly all actives have a fitted effect of over 30% in size; inactives centre near -10
Numbers without * were called inactive; i = inactive; ? = inconclusive; / = no result given; & = joins results of further samples; [ ] = another dose, or the depositor's remark. % is set by controls: 0 for no effect and ±100 for the full control effect; potency is the fitted concentration of half-maximal effect. Hits appear at their usual frequency; about 0.88% have a hit in one of these screens.

SMILES	Vaccinia mCherry	Vaccinia Venus
CCC(Nc1ccc(-c2nc(-c3ccccn3)no2)cc1[N+](=O)[O-])c1ccccc1 (centres undefined)	-21%	-8%
COc1ccc(NC(=O)N2CCCC2C(=O)Nc2ccccc2)cc1 (centres undefined)	/	-15%
COc1cc(NC(=O)CCS(=O)(=O)c2ccc3c(c2)CC(=O)N3C)cc(OC)c1OC	-8%	-4%
COc1ccc(SCc2noc(C(=O)NCC3CCCO3)c2C(=O)O)cc1 (centres undefined)	i	-5%
CCOC(=O)C1(CCOc2ccccc2)CCN(Cc2cccc3nonc23)CC1	-24%	?
Cc1ccc(C(=O)OCC(=O)N(C)c2ccccc2)c(C)c1	-32%	-9%
Cc1c(NC(=O)/C(C#N)=C/c2ccccc2)c(=O)n(-c2ccccc2)n1C	-7%	-9%
CC(C)NCCOc1cccc(Br)c1	-4%	3%
CC(C)N1CC2(c3ccccc3)CN(C(C)C)CC(c3ccccc3)(C1)C2=O	/	-6%
CN(C)CCn1c2c(c(SCC(=O)NCc3ccccc3)nc1=O)CCC2	-23%	-13%
COc1ccc(OCC(=O)Nc2nnc3n2CCS3)cc1	-9%	1%
CN(C)c1ccc(C(CNS(=O)(=O)c2ccc3ccccc3c2)N2CCOCC2)cc1 (centres undefined)	i	-13%
CCOc1ccc(NC(=S)NC(C)C(c2ccccc2)N2CCN(C)CC2)cc1 (centres undefined)	-12%	-6%
Cc1ccnc(NS(=O)(=O)c2ccc(NC(=O)c3cc(-c4ccc(Br)cc4)nc4ccccc34)cc2)n1	i	-12%
Nc1nc2ccccc2n1/N=C/c1ccc2c(c1)OCO2	-19%	?
N#CC1=C(SCC(=O)Nc2ccccc2)NC(=O)CC1c1ccco1 (centres undefined)	-5%	-17%
O=C(Cc1ccc(F)cc1)Nc1nnc2n1CCS2	-1%	3%
O=C(COC(=O)c1ccc(S(=O)(=O)N2CCCCC2)cc1)NCc1ccc(F)cc1	-21%	-18%
CC(=O)Nc1ccc(S(=O)(=O)NC(CC(=O)NCCCN2CCOCC2)C(C)C)cc1 (centres undefined)	/	-19%
CC(=O)NC(c1cccc(F)c1)c1nc(-c2cnc3ccccc3c2)cs1 (centres undefined)	26%	-12%
O=C1NC(c2ccccc2)(C(F)(F)F)SC2=NCCCN12 (centres undefined)	-9%	-3%
O=C(Nc1ccc2c(c1)C(=O)NC2=O)c1cccc(Cl)c1	-16%	-9%
N/C(=N\OS(=O)(=O)c1ccc2ccccc2c1)c1ccncc1	/	-12%
CCOc1ncccc1C(=O)OCC(=O)NC1CC1	-3%	-8%
CN(C)C/C=C/C(O)(c1ccccc1)c1ccccc1	i[7.34 µM]	-4%[7.34 µM]

The results go on:
SMILES	Vaccinia mCherry	Vaccinia Venus
Cc1csc(NC(=O)C(CC(C)C)NS(=O)(=O)c2ccc3c(c2)oc(=O)n3C)n1 (centres undefined)	?	-8%
CCC(=O)NC(=S)Nc1cccc(NC(=O)c2ccccc2)c1	-10%	-14%
CC1CCCC(C)N1/N=C/c1ccc(C#N)cc1 (centres undefined)	-14%	1%
Cc1nc(SCC(=O)Nc2ccc(Cl)cc2[N+](=O)[O-])nc(C)c1C	-1%	-10%
Cc1ccc(CCNC(=O)C2CCCN(c3nnc(C)c4c(C)n(-c5ccccc5)nc34)C2)cc1 (centres undefined)	-6%	-12%
CC1=C(c2ccc(C(C)C)cc2)S(=O)(=O)N=C1N1CCC(C(=O)NCc2ccco2)CC1	?	?
CCN1CCN(Cc2ccc(NC(=O)c3cc(NC(=O)C4=NN(c5ccccc5)C(=O)C4)cc(OC)c3)cc2C(F)(F)F)CC1	-15%&-17%	-10%&-3%
COc1ccc2c(c1)CCN(C(=O)CCl)C2C1C(=O)CCCC1=O (centres undefined)	i	5%
CCN(CC(=O)Nc1ccc(NC(C)=O)cc1)c1ccc(C(F)(F)F)cn1	-15%	-14%
Cn1c(=O)[nH]c2nnc(-c3ccc(Cl)c(Cl)c3)nc2c1=O	-6%	-7%
C=CCNC(=S)N1CCc2[nH]c3ccccc3c2C1	-29%	-17%
CC(C)CNC(=O)c1ccc(COc2ccc(Cl)cc2Cl)o1	-11%[1.46 µM]	?
Cc1sc(NC(=O)CN2CCCC2)nc1-c1ccc2c(c1)CCN2C(=O)c1cccc(F)c1	?	-24%
CN1/C(=C\C(=O)CSc2nnc(NCc3ccccc3)s2)C(C)(C)c2ccccc21	-13%	-4%
CCN1C(=O)[C@H]2[C@@H](c3ccc(-c4ccc5c(c4)OCO5)cc3)N[C@@](Cc3ccccc3)(C(=O)OC)[C@H]2C1=O	-10%	-23%
CCN(CC)CCCN=Cc1c(-c2ccccc2)[nH]n(-c2nc3ccccc3s2)c1=O	i	-17%
Oc1c(C(c2ccccn2)N2CCCCC2)cc(Cl)c2cccnc12 (centres undefined)	?	3%[7.34 µM]
C/C(N)=C(/C#N)C(=O)COC(=O)COc1ccc(Cl)cc1C	-14%	-14%
COc1ccc(-c2cccc([C@H]3[C@@H]4C=CC[C@@H](C)[C@@H]4C(=O)N3Cc3ccccc3)c2)cc1	i	-16%
COC(=O)c1ccc(COc2ccccc2/C=C(\C#N)C(=O)Nc2ccccc2C)cc1	-14%	-9%
COc1cccc(-c2ccc3c(c2)C2CC3CCN2C(C)=O)c1 (centres undefined)	i	-12%
Cc1ccc(-c2cnc3cc(C)nn3c2)cc1	-2%	2%
Cc1cc(C(=O)CN2CCCC2)c(C)n1-c1ccc(Cl)cc1	-10%	-5%
CCOc1ccc(NS(=O)(=O)c2cc(C(=O)N3CCN(C(C)=O)CC3)ccc2Cl)cc1	-15%	-18%
COc1ccc(Cn2ccc3nc(C)c(C(=O)Nc4ccc(OC)c(OC)c4)cc3c2=O)cc1	-2%	-15%

An excerpt of these results, as labelled records:
CC1=C(c2ccc(C(C)C)cc2)S(=O)(=O)N=C1N1CCC(C(=O)NCc2ccco2)CC1
  Vaccinia mCherry: ?
  Vaccinia Venus: ?

CCN1CCN(Cc2ccc(NC(=O)c3cc(NC(=O)C4=NN(c5ccccc5)C(=O)C4)cc(OC)c3)cc2C(F)(F)F)CC1
  Vaccinia mCherry: -15%&-17%
  Vaccinia Venus: -10%&-3%

COc1ccc2c(c1)CCN(C(=O)CCl)C2C1C(=O)CCCC1=O (centres undefined)
  Vaccinia mCherry: i
  Vaccinia Venus: 5%

Going on with the list.
SMILES	Vaccinia mCherry	Vaccinia Venus
N#CC(=C=[N-])/C=C(\C(=O)c1ccccc1)[n+]1ccccc1	-10%	-13%
COCOCCn1cc(CN2CCS(=O)(=O)N(Cc3ccc(-c4cccc(N(C)C)c4)cc3)C(C(C)C)C2=O)nn1 (centres undefined)	-8%	-16%
CCOC(=O)N1CCC(C(N)=O)CC1	1%	6%
Cc1cc2c(cc1S(=O)(=O)Nc1ccc(F)cc1)n(C)c(=O)c(=O)n2C	i	-17%
COC(=O)[C@@]12C[C@@H](CC(=O)N3CCN(C(=O)C4CC4)CC3)C(=O)N(CCc3ccc(OC)c(OC)c3)C1=CCC(C)(C)C2	-3%	-11%
CC1(C)CC(=O)C2=C(C1)Nc1cc(Cl)ccc1S2	-19%	-25%
COc1ccc(N(C(=O)c2ccco2)C(C(=O)NC2CCCC2)c2cccs2)cc1 (centres undefined)	-6%	-6%
O=c1c2cc3c(cc2n(Cc2ccc(F)cc2)c(=O)n1Cc1nc(-c2ccccc2)no1)OCO3	-8%	2%
O=C(C(=O)N1CCC(c2ccccc2)CC1)c1ccc(F)c(F)c1	?	-5%
COC(=O)c1c(NC(=O)CN(c2ccccc2)S(C)(=O)=O)sc2c1CCCC2	i	-30%
Cc1c(Cl)cccc1NC(=O)CCCN1C(=O)c2cccnc2C1=O	i	-3%
CCn1ccnc1CN(C)Cc1nc(CCC(C)C)no1	-11%	-7%
COc1ccc(-c2ccoc2)cc1[C@H]1[C@H]2C=CC[C@@H](C)[C@@H]2C(=O)N1Cc1ccccc1	?	?
CC(=O)Nc1ccc(NCCc2ccco2)cc1	48%[activator]	1%
N/C(=C/C(=O)c1ccccc1O)C(F)(F)F	-17%	-3%
Cc1ccc(NC(=O)Cn2nc(C)c([N+](=O)[O-])c2C)cc1C	i	-14%
Cc1cccc(N=C2NN=C(c3c(C)[nH]c4ccccc34)CS2)c1	?	?
CC(NC(=O)Cc1ccc(F)cc1)C(c1cccs1)N1CCN(C)CC1 (centres undefined)	-1%	-11%
CCOc1nc(NC(=O)NC(=O)c2ccccc2)nc(-c2ccccc2)n1	-7%	-15%
O=c1[nH]c(COc2ccc(Cl)cc2Br)nc2ccccc12	-1%	-13%
NC1=NC(c2cc(F)cc(F)c2)n2c(nc3ccccc32)N1 (centres undefined)	0%	-3%
CC(=O)c1cccc(NC(=O)CSc2nc(=O)n(Cc3cccnc3)c3c2CCC3)c1	-15%	-1%
CC(=NCc1ccco1)c1c(C)[nH]n(-c2nc3ccccc3s2)c1=O	?	?
COc1cc(C2C(C#N)=C(N)OC3=C2C(=O)CC(C)(C)C3)cc([N+](=O)[O-])c1O (centres undefined)	-12%	-4%
COc1cc2c(cc1OC)C(C)N(C(=O)CCc1c[nH]c3ccccc13)CC2 (centres undefined)	-17%	-7%

New compounds follow.
SMILES	Vaccinia mCherry	Vaccinia Venus
Cc1ccc(SCC(=O)Nc2ccc(N3CCN(C)CC3)c(F)c2)c(C)c1	-7%	-27%
COc1ccc2c(Sc3ccccc3)c(C(=O)NCC(C)c3ccccc3)[nH]c2c1 (centres undefined)	-18%	-21%
C/C(=N/OCC(=O)Nc1ccccc1)c1cccs1	/	-13%
CCCC1NC(=O)c2cccnc2-n2c1nc1ccc(C)cc1c2=O (centres undefined)	i	-13%
CCc1cccc(NC(=O)COc2ccccc2)c1	-16%	-5%
CCCCC1=CC2=CC(=O)C(C)(OC(=O)CC)C(=O)C2=CN1CCCOC(C)C (centres undefined)	-12%	-9%
COc1cccc(C(=O)CSc2nnnn2C2CCCCC2)c1	-9%	-4%
CN1/C(=C/C=C/c2n(C)c3cc([N+](=O)[O-])c([N+](=O)[O-])cc3[n+]2C)C(C)(C)c2ccccc21	-23%	51%[activator]
O=C(C=Cc1ccccc1F)c1ccccc1	5%	-11%
CCOC(=O)[C@H]1[C@H]2COc3ccc(Cl)cc3[C@@H]2N2C(=O)CN(Cc3ccco3)C(=O)[C@@]12C	i	-9%
c1sc2[n+](c1C13CC4CC(CC(C4)C1)C3)CCS2	-10%	-30%
COC(=O)CSc1nc(-c2ccc(C)cc2)c2c(c1C#N)CCCC2	-2%	14%
COc1ccc(Oc2nc3c(c(=O)n(C)c(=O)n3C)n2Cc2ccc(Cl)cc2Cl)cc1	-22%	-2%

Part of the list above, with values under each structure.
Screens in order: Vaccinia mCherry | Vaccinia Venus
> O=c1[nH]c(COc2ccc(Cl)cc2Br)nc2ccccc12
→ -1% | -13%
> NC1=NC(c2cc(F)cc(F)c2)n2c(nc3ccccc32)N1 (centres undefined)
→ 0% | -3%
> CC(=O)c1cccc(NC(=O)CSc2nc(=O)n(Cc3cccnc3)c3c2CCC3)c1
→ -15% | -1%
> CC(=NCc1ccco1)c1c(C)[nH]n(-c2nc3ccccc3s2)c1=O
→ ? | ?
> COc1cc(C2C(C#N)=C(N)OC3=C2C(=O)CC(C)(C)C3)cc([N+](=O)[O-])c1O (centres undefined)
→ -12% | -4%
> COc1cc2c(cc1OC)C(C)N(C(=O)CCc1c[nH]c3ccccc13)CC2 (centres undefined)
→ -17% | -7%
> Cc1ccc(SCC(=O)Nc2ccc(N3CCN(C)CC3)c(F)c2)c(C)c1
→ -7% | -27%
> COc1ccc2c(Sc3ccccc3)c(C(=O)NCC(C)c3ccccc3)[nH]c2c1 (centres undefined)
→ -18% | -21%
> C/C(=N/OCC(=O)Nc1ccccc1)c1cccs1
→ / | -13%
> CCCC1NC(=O)c2cccnc2-n2c1nc1ccc(C)cc1c2=O (centres undefined)
→ i | -13%
> CCc1cccc(NC(=O)COc2ccccc2)c1
→ -16% | -5%
> CCCCC1=CC2=CC(=O)C(C)(OC(=O)CC)C(=O)C2=CN1CCCOC(C)C (centres undefined)
→ -12% | -9%
> COc1cccc(C(=O)CSc2nnnn2C2CCCCC2)c1
→ -9% | -4%
> CN1/C(=C/C=C/c2n(C)c3cc([N+](=O)[O-])c([N+](=O)[O-])cc3[n+]2C)C(C)(C)c2ccccc21
→ -23% | 51%[activator]
> O=C(C=Cc1ccccc1F)c1ccccc1
→ 5% | -11%
> CCOC(=O)[C@H]1[C@H]2COc3ccc(Cl)cc3[C@@H]2N2C(=O)CN(Cc3ccco3)C(=O)[C@@]12C
→ i | -9%
> c1sc2[n+](c1C13CC4CC(CC(C4)C1)C3)CCS2
→ -10% | -30%
> COC(=O)CSc1nc(-c2ccc(C)cc2)c2c(c1C#N)CCCC2
→ -2% | 14%
> COc1ccc(Oc2nc3c(c(=O)n(C)c(=O)n3C)n2Cc2ccc(Cl)cc2Cl)cc1
→ -22% | -2%
